Vif TR-FRET: inhibitors of Vif binding to APOBEC3G peptide, primary screen, biochemical, TR-FRET, GST-Vif 1-94, biotin-A3G peptide, dose response retest (AID 1117319) | TR-FRET GST-Vif / biotin-A3G peptide binding; higher % means a stronger effect; test concentration not given here; strong numbers were not always called active | inhibition, %, or IC50 in µM where a hit was titrated | 260,000 tested, 0.57% active;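 active means above the screen mean plus three standard deviations and confirmed in dose response; inconclusive means results disagree or hit not tested in dose response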;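 further: Vif residues 1-94 fused to GST binding biotinylated APOBEC3G peptide 110-148; 0% = full assay without inhibitor and 100% = GST in place of GST-Vif; retest series ran down from 100 µM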
RanGTP-Impb inh: inhibitors of RanGTP-importin-beta interaction, primary screen, biochemical, FRET, CFP-Ran, YFP-importin-beta, homogeneous; Ran GTPase (GTP-bound) - importin-beta complex; cell-free CFP-Ran/YFP-importin-beta FRET ratio; inhibition, % (concentration not given with the values); 300,000 tested, 1.1% active;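 active means most replicates above 15%; inconclusive means exactly half above 15%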;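 further: 0% = DMSO wells and 100% = Ran loaded with GDP instead of GTP; wells of about 40 µL received 100 nL stock; the first replicate is given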
T cruzi repl: inhibitors of intracellular T. cruzi growth, primary screen, luminescence, NIH3T3 host cells; T. cruzi beta-gal in NIH3T3, 90 h; 300,000 tested, 1.4% active; inhibition, % (concentration not given with the values);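 active means mean inhibition across valid replicates above about 55%, limit read from the data; inconclusive means mean below that limit but half or more replicates reach it; inactive means mean below it, under half of replicates reach it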;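 further: signal also drops with host cell toxicity which is not excluded here; 0% = plate median of DMSO wells and 100% = zero luminescence signal; higher percent means less beta-gal luminescence so fewer parasites; stock transfer was 50 nL into about 50 µL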
Calb FLC: C. albicans growth inhibition with fluconazole, primary screen, CaCi-2 strain, Alamar Blue fluorescence; growth inhibition, % (test concentration not listed); 300,000 tested, 0.57% active; AID 1979, 2009; C. albicans CaCi-2 (fluconazole-resistant clinical isolate) + fluconazole, 48 h;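 active means most replicates above 75%; inconclusive means exactly half above 75%; inactive means most below 75%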;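 further: all wells also contain fluconazole at 8 µg/ml as a sub-toxic cotreatment; 0% = median of DMSO wells and 100% = median of geldanamycin control wells; wells of about 8 µL received 7.5 nL stock; the first replicate is given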
MLL AF4-AF9 inh: inhibitors of AF4 peptide binding to AF9, primary screen, biochemical, AlphaScreen, biotin-AF4 peptide, FLAG-AF9, single point | 350,000 tested, 0.47% active | Protein AF-9 (Homo sapiens), P42568 | inhibition, % at 10 µM;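 active means every replicate reaching a set inhibition limit, whatever the replicate mean, cut at about 25% in these data; inconclusive means mean inhibition reaches that limit but some replicates miss it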;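 further: 0% = plate neutral control median and 100% = total signal loss; the record names both 10 and 1 µM as test concentration; the first replicate is given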
Target sequence (P42568 whole entry, looked up): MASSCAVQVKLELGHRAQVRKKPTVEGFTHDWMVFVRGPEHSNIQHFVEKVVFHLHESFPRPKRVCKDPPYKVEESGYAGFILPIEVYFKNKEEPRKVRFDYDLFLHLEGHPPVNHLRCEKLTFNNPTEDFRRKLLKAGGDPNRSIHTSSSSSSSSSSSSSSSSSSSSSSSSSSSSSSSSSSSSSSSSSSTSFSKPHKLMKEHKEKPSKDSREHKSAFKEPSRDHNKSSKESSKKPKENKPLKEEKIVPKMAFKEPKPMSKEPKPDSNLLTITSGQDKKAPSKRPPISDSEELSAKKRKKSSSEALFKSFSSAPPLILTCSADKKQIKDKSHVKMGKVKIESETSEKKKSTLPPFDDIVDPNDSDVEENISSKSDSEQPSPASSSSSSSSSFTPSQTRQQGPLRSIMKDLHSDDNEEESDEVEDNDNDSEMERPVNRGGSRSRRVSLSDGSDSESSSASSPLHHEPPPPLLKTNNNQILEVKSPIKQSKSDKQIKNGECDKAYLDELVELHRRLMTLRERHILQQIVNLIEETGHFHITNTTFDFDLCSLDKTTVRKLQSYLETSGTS
Bfl-1 A1 inh: caspase 3/7 activation in MEF A1-2A-BIM cells, primary screen, A1 inhibitor project, cell-based, luminescence, HTS | Caspase-Glo 3/7 luminescence, 3 h; percent of clofoctol response, vehicle zero | caspase activation, % (test concentration not listed) | 330,000 tested, 0.066% active | AID 2462, 2010;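 active means over half of replicate activation scores above 10%, or exactly half above 10 with the replicate mean above 10; inconclusive means replicate mean below 10 yet half the replicates above 10; inactive means over half of replicates below 10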;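 further: wells of about 30 µL received 50 nL stock; many hits fall short of the cut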
Beta cell apopt: inhibitors of cytokine-induced beta cell apoptosis, primary screen, luminescence; INS-1E cytokine-induced death, ATP luminescence, 48 h; percent of positive-control rescue, neutral wells zero; protection from apoptosis, % (no concentration beside the values); 300,000 tested, 0.8% active;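 active means all replicates at 75% or more, or half of them and the mean; inconclusive means half reach 75% but not the mean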;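 further: 0% = cytokine-treated negative control wells and 100% = positive control rescue; higher means more ATP so stronger rescue from cytokine killing; wells of about 40 µL received 100 nL stock; the first replicate is given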
Ecoli rRNA inh: reduced GFP signal of wild-type E. coli, primary screen, bacterial rRNA inhibitor project, GFP/RFP fluorescence, OD600, single point | E. coli WT GFP vs humanized-ribosome RFP mutants, 24 h; hits give low values; DMSO median 0, no signal -100 | GFP signal change (wild-type ribosome), % (no concentration beside the values) | 350,000 tested, 1.6% active;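 active means significant combined selectivity score with lowered wild-type GFP, culture density cut under 30%, mutant RFP and density less affected; inactive means any of these conditions unmet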; further: one replicate is shown; some compounds called inactive have numbers as strong as hits
Ecoli rRNA inh OD600: further read-out of Ecoli rRNA inh, marked with its call; OD600 change, %; measured here: OD600 growth;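 optical density of the mix in the first replicate; 0 = DMSO median and -100 = no signal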
Ecoli rRNA inh RFP: also measured in Ecoli rRNA inh; calls as there; RFP signal change, %; measured here: RFP humanized mutant strains;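 first replicate; 0 = DMSO median and -100 = no signal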
Starred values were filed as active, the others as inactive; ? = inconclusive; / = no result given. Only part of the results is shown; count on the stated rates, not on these rows.

SMILES	Vif TR-FRET	RanGTP-Impb inh	T cruzi repl	Calb FLC	MLL AF4-AF9 inh	Bfl-1 A1 inh	Beta cell apopt	Ecoli rRNA inh	Ecoli rRNA inh OD600	Ecoli rRNA inh RFP
Cc1cc(OC(=O)Cc2cccc3ccccc23)c([N+](=O)[O-])c(=O)[nH]1	-2%	1.4	-5	3	/	0.1	-6	/	/	/
COc1ccccc1/C=C(\NC(=O)c1ccc(OC)c(OC)c1)C(=O)Nc1cc([N+](=O)[O-])ccc1C	/	12	-25	12	0.0	0.1	1	4	5	1.5
CC1CCN(S(=O)(=O)c2ccc3c(ccn3CCC(=O)N3CCCCC3)c2)CC1	/	-2.9	0	7	1.5	0.2	1	-3	-6	0.5
CSCCC(NC(=O)c1ccoc1C)C(=O)O (stereo not given)	19%	-2.0	-14	9	/	-0.7	-1	11	5	1.0
COc1ccc(C(=O)Nc2ccccc2N2CCOCC2)cc1[N+](=O)[O-]	2%	-1.8	15	-8	/	0.4	-12	/	/	/
O=C(CCN1CCCCCC1)Nc1ccccc1F	-9%	8.9	-18	5	/	1.1	0	/	/	/
Cc1ccc(CNC(=O)CCc2ccc(S(=O)(=O)NC3CCCCC3)cc2)cc1	0%	-0.7	-5	-1	/	0.1	-2	/	/	/
CCNS(=O)(=O)c1ccc(CCC(=O)NCc2ccc(C)cc2)cc1	-7%	1.4	18	-11	-2.1	0.1	-10	8	9	0.6
COc1ccc(-c2nn(CCC#N)cc2/C=N/O)cc1OC	5%	-0.5	-6	7	-2.4	0.8	-9	16	8	1.4
O=C(Nc1ccccc1)c1ccc(F)c(S(=O)(=O)N2CCOCC2)c1	-1%	-3.2	8	-3	/	-1.4	-6	/	/	/
O=C(CCNC(=O)c1ccc(Cl)cc1)Nc1ncccc1O	3%	-2.1	-27	?	-3.8	0.3	-3	4	9	0.7
Cc1ccc(OCc2nnc(SCC(=O)Nc3ncc(C)s3)o2)cc1	?	-2.2	-21	11	-2.8	0.1	-7	-41	-41	-4.0
COc1ccc(C2CC(c3cccs3)=NN2c2nc(C)c(C(C)=O)s2)cc1OC (stereo not given)	8%	89*	16	9	-21	/	/	-13	-14	-5.9
C/C(=N\Nc1ccccc1C)c1cccnc1	7%	1.6	22	-7	4.9	-0.4	-6	6	9	-0.5
COc1cc(-c2nnc(-c3ccco3)o2)ccc1OCc1ccccc1	24%	-4.0	1	33	/	-0.6	2	/	/	/
CCC1=Nc2cc(C(=O)NCCN3CCOCC3)ccc2Sc2ccc(Br)cc21	/	0.2	24	-3	-3.0	2.4	-2	1	-11	6.0
COc1ccc(/C=C/C(=O)O/N=C(\N)c2cccnc2)cc1OC	/	0.2	-17	-4	1.7	0.5	3	-9	-11	-1.3
Cc1ccc(S(=O)(=O)Cn2nnnc2C(C(C)C)N2CCN(C(=O)c3ccco3)CC2)cc1 (stereo not given)	/	-3.2	-14	7	/	0.0	0	/	/	/
COCCCNC(=O)CC(NS(=O)(=O)c1ccc(Cl)cc1)c1ccc(OC)cc1 (stereo not given)	7%	3.9	10	?	/	0.6	-2	/	/	/
COCCN(Cc1cc2cccc(C)c2[nH]c1=O)C(=O)c1ccccc1	-1%	1.6	-2	2	/	0.4	4	/	/	/
Cc1ncc(S(=O)(=O)c2ccc(Cl)cc2)c(-c2ccccc2)n1	7%	0.1	-11	?	/	-0.4	2	/	/	/
Cc1ccc(C(=O)CSc2nsc(C)c2C#N)cc1	0%	-1.0	-7	-6	/	0.6	2	/	/	/
COC(=O)CCc1c(C)[nH]c(=S)[nH]c1=O	-4%	3.1	-5	-3	/	-0.2	-1	/	/	/
CCOC(=O)CSc1nnc(NC(=O)c2ccco2)s1	/	1.6	-4	9	0.5	0.1	-7	0	7	-0.3
C=CCn1c(CNc2ccccc2)nnc1SCC(=O)N/N=C/c1ccccc1O	30%	6.6	13	16	/	0.8	6	/	/	/
The listing continues:
SMILES	Vif TR-FRET	RanGTP-Impb inh	T cruzi repl	Calb FLC	MLL AF4-AF9 inh	Bfl-1 A1 inh	Beta cell apopt	Ecoli rRNA inh	Ecoli rRNA inh OD600	Ecoli rRNA inh RFP
CN(C)C(=O)CSc1nnc(-c2ccc(S(=O)(=O)N3CCCC3)cc2)n1C	-1%	-1.3	-5	-8	-0.9	-0.6	-11	5	4	-3.0
O=C(c1cnc2nc3ccccc3n2c1)c1cc(F)ccc1O	7%	-1.5	-1	-20	-1.0	-1.1	-6	-7	2	-1.2
NC(=O)c1cc(Cl)ccc1OCC(=O)N1CCCc2ccccc21	-7%	6.1	3	3	-0.4	1.1	8	-2	1	1.7
Cn1c(N)c(C(=O)COC(=O)CSc2ccc(Cl)cc2)c(=O)n(C)c1=O	-6%	0.0	3	-1	/	-1.7	-7	/	/	/
COc1cccc(NC(=O)CN2C(=O)COc3ccc(S(=O)(=O)N4CCC(C)CC4)cc32)c1	-1%	3.4	24	1	3.4	0.1	1	1	-23	-1.4
O=C(Nc1c(C(=O)N2CCOCC2)cnn1-c1ccccc1)c1ccc(F)cc1	1%	2.3	6	1	-0.5	0.4	-2	/	/	/
Cc1cc(C)c(NC(=O)CSc2nnc(-c3ccncc3)n2Cc2ccco2)c(Cl)c1	16%	1.1	6	-4	/	-0.6	-1	/	/	/
CCN1CCN(CCc2nc3cc(NC(=O)COc4ccccc4)ccc3n2C)CC1	/	-0.7	12	0	3.7	0.0	-5	5	2	1.0
O=c1ccnc(NCCc2ccccc2)[nH]1	29%	/	/	0	/	0.3	-1	/	/	/
CC(NC(=O)c1cc(Br)ccc1Cl)c1ccccc1 (stereo not given)	4%	-0.7	1	-6	1.9	0.2	-1	-3	-1	-6.7
Cc1ccc(OCc2ccc(C(=O)NCc3cccnc3)cc2)cc1C	-1%	0.8	-18	33	2.8	0.0	-11	-50	-58	-3.5
COc1ccc2nc(SCC(=O)Nc3cc(C)on3)c(C#N)cc2c1	/	-6.7	-4	45	-3.7	0.2	2	5	13	0.3
O=C(C1CCCO1)N1CCN(C(=S)Nc2cccc(F)c2)CC1 (stereo not given)	-5%	1.1	-6	4	-0.4	0.4	-7	/	/	/
O=C(NC1CCCC1)[C@@H]1CSC2c3ccccc3C(=O)N21 (stereo not given in full)	10%	-1.1	-8	-2	1.2	-1.3	-11	12	11	-2.0
CCCCn1c(SCC(=O)NCc2ccccc2)nc2ccc(N3CCOCC3)cc2c1=O	19%	-3.2	21	-8	/	0.7	-1	/	/	/
N#Cc1ccc(NC(=S)Nc2ccccc2)cc1	/	8.7	-15	1	/	-0.4	-4	/	/	/
COc1ccc(S(=O)(=O)N2CCN(c3ncccn3)CC2)cc1OC	-4%	-0.4	-5	-6	-0.8	0.8	/	7	4	-2.2
Cc1ccccc1NC(=O)CSc1nc(O)cc(=O)n1C	10%	7.1	6	-8	-4.4	0.2	/	15	10	3.2
O=C(Nc1ccnn1C1CCN(C(=O)c2cccc(C(F)(F)F)c2)CC1)C1CC1	2%	-1.4	-19	-12	0.3	1.4	2	3	14	-4.2
CCCCCc1ccc(S(=O)(=O)NCCc2ccncc2)cc1	0%	?	-9	1	/	0.1	8	/	/	/
Cc1ccccc1CS(=O)(=O)CCC(=O)NCc1ccccn1	-3%	0.4	-22	4	/	0.1	-1	/	/	/
COc1ccccc1-c1cc(C(F)(F)F)n2ncc(S(=O)(=O)c3ccccc3)c2n1	6%	1.2	42	-7	/	0.2	-7	/	/	/
COc1ccc(-c2cn(-c3ccc(SC(F)F)cc3)c3[n+]2CCC3)cc1OC	-15%	4.0	-6	-4	/	1.1	-4	/	/	/
O=C(CSc1nc(=O)n(CCCN2CCOCC2)c2c1CCCC2)Nc1ccc(F)cc1	-10%	-1.0	3	8	-9.8	-0.5	-4	0	-4	-1.6
COc1ccccc1N(CC(O)COc1c(C)cc(C)cc1C)S(=O)(=O)c1ccccc1 (stereo not given)	2%	0.9	22	1	-3.1	-1.8	-5	-4	-8	-2.6
Going on with the list.
SMILES	Vif TR-FRET	RanGTP-Impb inh	T cruzi repl	Calb FLC	MLL AF4-AF9 inh	Bfl-1 A1 inh	Beta cell apopt	Ecoli rRNA inh	Ecoli rRNA inh OD600	Ecoli rRNA inh RFP
NC(=O)CC(NC(=O)c1ccccc1)c1ccc(NCCOc2ccccc2)c([N+](=O)[O-])c1 (stereo not given)	?	-2.6	-1	-5	/	-0.2	/	/	/	/
Cc1ccc(NC(=O)COC(=O)c2ccn(C)n2)cc1	-3%	3.6	-39	10	-29	0.1	-8	10	4	2.9
COC(=O)CSc1nnc(CNC(=O)c2cc(OC)c(OC)c(OC)c2)n1C	?	-2.2	-9	-3	/	0.0	-2	/	/	/
O=C(CCc1c[nH]c2ccccc12)OCc1cccc(C(F)(F)F)c1	-11%	-1.5	-7	-4	-0.8	0.1	0	-3	3	3.8
CCC1(COC(=O)Nc2cccc(Cl)c2)COC1	28%	0.3	3	8	/	-0.7	/	/	/	/
Cc1cc(C(=O)Nn2cnnc2)ccc1[N+](=O)[O-]	1%	4.0	-3	7	0.9	-9.6	-2	8	8	-1.4
CCN(CC)S(=O)(=O)c1ccc(/C=C/C(=O)Nc2ccccc2N2CCOCC2)cc1	28%	-4.0	2	-3	?	0.8	6	-5	-16	0.5
COCC1CCCN(Cc2nc(Cc3ccccc3)no2)C1 (stereo not given)	1%	-1.7	0	-11	1.2	-0.3	0	8	3	1.8
NS(=O)(=O)c1ccc(CCNC(=O)Cc2ccc(S(=O)(=O)N3CCCC3)s2)cc1	/	-3.3	22	3	1.3	1.2	3	8	0	-2.5
CCC(C)NC(=O)Nc1ccc(Br)cc1Cl (stereo not given)	/	?	-3	-6	-1.2	0.0	-1	7	-4	-2.2
COC(=O)COc1ccc(S(=O)(=O)Nc2ccc3c(c2)OCO3)cc1Cl	6%	5.0	3	-4	/	-0.3	-14	/	/	/
O=C(OCCn1cncn1)c1cc2ccccc2oc1=O	6%	2.5	-19	-4	/	0.2	-8	/	/	/
Cc1ccccc1NC(=O)NCC1CCCO1 (stereo not given)	?	2.6	-21	-3	/	0.1	-7	/	/	/
C/C(Cl)=C/CSc1nn2c(=O)c3ccccc3nc2s1	1%	4.8	3	-22	/	-2.2	-3	-5	-42	-9.9
O=C(NCCO)C1CCN(C(=O)c2ccc(-c3ccccc3)cc2)CC1	4%	-0.4	-4	-6	-1.9	0.0	-2	9	0	-0.6

Bioassay records: PubChem, several laboratories
